Tgondii IFNg: T. gondii growth inhibition with IFN-gamma, primary screen, cell-based; AID 1259416, 2018; Toxoplasma gondii growth in IFN-gamma-treated host cells; hits give low values; reference of the scale not given here; activity change, negative = inhibition, %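 (about 20 µM by stock and volumes)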; actives 3.8% (n = 69,000);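 active = below -70%; inconclusive = fit judged invalid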;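 also: host cells are HeLa cells infected with Toxoplasma gondii; parasite growth read as luciferase light; one replicate is shown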
* hit, by the source's call; ? = inconclusive; & = joins results of further samples; ! = a repeat was not active.

SMILES	Tgondii IFNg
CN(C)C(=O)CC1CC2(CCN(C(=O)C3CCOCC3)CC2)Oc2ccccc21 (stereo not given)	1
CC(=O)N1CCC(N2CCC3(CCCN(C(=O)OCC(C)(C)C)C3)C2)CC1 (stereo not given)	-36
CCOC(=O)C1CCCN(C2CCCN(c3nc(C)c4ccc(S(C)(=O)=O)cc4n3)CC2)C1 (stereo not given)	-3
O=C(CC1N=C2c3ccccc3N=C(SCc3cccc(F)c3)N2C1=O)NCc1ccc2c(c1)OCO2 (stereo not given)	-19
c1ccc(CCc2nc(CCOc3ccccc3)n[nH]2)cc1	-30
Cc1cc(C)n(CCCN(C)C(=O)C2CC3(CCNCC3)CN2)n1 (stereo not given)	-1
N#Cc1cccc(NC(=O)Cn2c(=O)cc(C(=O)N3CCc4ccccc4C3)c3ccccc32)c1	11
COc1ccccc1-n1nc(C(C)C)nc1Cn1ccc(=O)[nH]c1=O	2
CCc1noc(C)c1C(=O)N1CCS(=O)(=O)CC1	19
O=C(c1cccc(F)c1)N1CCCC(c2n[nH]c(=O)n2-c2ccccc2)C1 (stereo not given)	-3
Cc1ccccc1C(C(=O)N1CCCOCC1)N(C)C (stereo not given)	-5
CCC(=O)N1CC2(C1)[C@@H](c1ccccc1)[C@@H](CO)N2CC1CC1	-13
O=C(CN1CCOCC1)N1[C@H](CO)[C@H]2c3ccccc3NC[C@H]21	-1
COCCn1ccc(-c2cc(C(=O)N3CCCC(O)C3)c3ccccn23)n1 (stereo not given)	-3
CCc1ccc(S(=O)(=O)N2CCCn3cnc(CN4CCCC4=O)c3C2)cc1	-21
Cc1cccnc1CC(C)Nc1ncc(C)c(N(C)C)n1 (stereo not given)	-37
O=C(NCC(c1cccnc1)c1c[nH]c2ccccc12)Nc1ccc(Br)cc1F (stereo not given)	-116*
CC(=O)N1CCC(C(=O)NCc2ccccc2)(N(C(=O)c2ccc(C)cc2)c2ccc(F)c(F)c2)CC1	-32
CSc1ccc(C2c3[nH]c4ccccc4c3CCN2C(=O)c2ccccc2)cc1 (stereo not given)	-88*
O=C(C[C@H]1CC[C@@H](NC(=O)c2cccnc2)[C@H](CO)O1)NCc1ccc(Cl)c(Cl)c1	-23
CC(=O)N1CCC(c2nnc3ccc(C(=O)NCCc4cccs4)cn23)C1 (stereo not given)	-66
COCCN(Cc1ccccc1F)Cc1coc2ccc(C)cc2c1=O	-5
[N-]=[N+]=N[C@]1(CO)O[C@@H](n2ccc(N)nc2=O)[C@H](O)[C@@H]1O	25
FC(F)(F)c1ccc(-c2cc(NC3CCNCC3)nc3[nH]ccc23)nc1	-3
Cc1ccc(C(=O)N2CCC3(CCC(COCC4CC4)N3C)CC2)nc1 (stereo not given)	5
CCC1CCCCN1CCCNC(=O)C1=C(C)C(=O)OC12CCN(S(=O)(=O)CC)CC2 (stereo not given)	3
Cc1cc(C)n(CCC(=O)NCc2ccc3sccc3c2)c(=O)n1	1
Cc1ncc(CN2CCC(Oc3cccc(C(=O)NCc4ccccc4)c3)CC2)s1	-28
CNC[C@H]1Oc2cc(C#Cc3ccccc3OC)ccc2S(=O)(=O)N([C@H](C)CO)C[C@@H]1C	-59
CCc1ncc(C(=O)N2CCN(Cc3ncccc3C)CC2)cn1	114
CCOCC1CN(Cc2cc(C)on2)Cc2cn(CC3CC3)nc21 (stereo not given)	4
O=C(CC1CC1)N1CC[C@@H]2[C@H]1c1cc(-c3ccc(F)cc3)ccc1N[C@@H]2CO	-22
COc1cccc(COC2CN(CC(C)C)C(=O)CN(C(=O)c3ccc(C#CC(C)(C)O)o3)C2)c1 (stereo not given)	-7
CCn1c(C2CCCN(C(=O)CSc3nncn3C)C2)nn(C)c1=O (stereo not given)	-27
CCc1cnc(N2C[C@H]3C[C@H](C(=O)Nc4ccccc4)[C@@H](C2)O3)nc1	16
CN(CCNC(=O)C1CC(=O)N(C2CCCC2)C1)S(C)(=O)=O (stereo not given)	-2
COc1ccccc1-c1ccc2c(c1)O[C@H](CN(C)CC1CCOCC1)[C@H](C)CN([C@@H](C)CO)S2(=O)=O	-19
Cc1cnn(Cc2nc(-c3ccc(NC(=O)c4c(F)cccc4F)cc3)oc2C)c1	-68
O=C(C[C@H]1CC[C@@H]2[C@H](COC[C@@H](O)CN2C(=O)c2ccncc2)O1)NCc1cc(F)cc(F)c1	-3
O=C(NCCc1nc(-c2ccccc2)cs1)C1(c2cccc(F)c2)CCOCC1	8
COCC(=O)N1CC2(C1)[C@H](c1ccccc1)[C@@H](CO)N2C(=O)NC1CCCC1	24
COc1ccc(CC(=O)Nc2ccc(-c3nc(-c4ccccc4)co3)cc2)cc1	1
CCc1ncc(C(=O)N(C)CC2COc3ccccc3O2)cn1 (stereo not given)	44
Cc1cccnc1CC(C)NC(=O)c1c(O)cccc1O (stereo not given)	6
CN1CCCC(CCNC(=O)CCC(=O)N2CCCCCC2)C1 (stereo not given)	-47
COCCN1C[C@@H]2CCN(C(=O)c3cn(C)c4ccccc34)CC[C@H]2S1(=O)=O	3
COc1ccc(-c2ccccc2NC(=O)CCN2C(=O)CCNC2=O)cc1	1
COc1ccc(S(=O)(=O)N(C)C[C@H]2Oc3c(NC(=O)c4nc5ccccc5s4)cccc3C(=O)N([C@@H](C)CO)C[C@H]2C)cc1	-82*
Cc1cc(-c2cncnc2)cc(C2CCCN(C(=O)c3ccc4nc(C)sc4c3)C2)n1 (stereo not given)	39
C=CCc1cc(C(=O)N2CC[C@H](O)[C@@H](O)C2)ccc1OC	-2
NC(=O)c1csc(N2CC[C@@H](c3ccc4ccccc4c3)[C@H](O)C2)n1	5
O=C1C(=O)N(Cc2ccc(Cl)c(Cl)c2)c2ccccc21	20
O=C(NCCc1ccc(Cl)cc1)c1cccc2nsnc12	-17
Cc1cccc(-c2ccc([C@@H]3[C@H](CO)N4CCCCN(S(=O)(=O)c5ccccc5F)C[C@@H]34)cc2)c1	-50
C/C=C/c1ccc([C@H]2[C@H]3CN(C(=O)Nc4ccc(F)cc4)CC(=O)N3[C@H]2CO)cc1	7
COc1ccccc1-n1cc(C(=O)NCC2(C)CC(C)=NO2)cn1 (stereo not given)	2
CC(=O)N1CCN(c2cc(C)nc(C3CCCN3C(=O)Cn3cccn3)c2)CC1 (stereo not given)	-2
CN(C)CC(=O)N1C[C@@H]2COC[C@]2(COCC2CCOCC2)C1	9
COc1nc2c(cc1C(=O)N1CCCn3nc(C(=O)O)cc3C1)CCC2	-2
NCCCS(=O)(=O)O	11

Later entries.
SMILES	Tgondii IFNg
CC(=O)Nc1ccc(S(=O)(=O)Nc2nc(C)cc(C)n2)cc1	14
CCc1nnc(NC(=S)NC(=O)c2ccc(-c3ccccc3)cc2)s1	245
CC1Oc2ccc(NCc3cccc(OCc4cccnc4)c3)cc2N(C)C1=O (stereo not given)	104
O=c1sc2ccccc2n1CCCOc1ccccc1	-10
CC(=O)c1cccc(NC(=O)N2CCC(C(=O)c3cccc(C(F)(F)F)c3)CC2)c1	-41
O=C(O)c1ccc(CC2CCCN(C(=O)C3CCS(=O)(=O)CC3)C2)cc1 (stereo not given)	11
Cc1cccc(-c2nc(Cn3cnc4onc(-c5ccc(Cl)cc5)c4c3=O)c(C)o2)c1	-41
Cc1nc2nnc3ccc(C(=O)NCCN(C)C)cc3c2n1-c1ccccc1	-4
CCOc1ccc(-n2cnnc2)cc1-n1cccc1	-74*
Cc1nn(CC(C)C(=O)N2CCCC2c2ncc3c(n2)CCNC3)c(C)c1C (stereo not given)	5
CCOc1ccccc1-c1noc(-c2nnn(Cc3nc(-c4ccc(C)cc4)oc3C)c2C)n1	-17
CN(C)Cc1cc(C2CCCN2C(=O)CCCOc2cccc(F)c2)nn1C (stereo not given)	69

Some of these compounds in order of number of heavy atoms, rising.
SMILES	Tgondii IFNg
NCCCS(=O)(=O)O	11
CCOc1ccc(-n2cnnc2)cc1-n1cccc1	-74*
O=c1sc2ccccc2n1CCCOc1ccccc1	-10
CC(=O)Nc1ccc(S(=O)(=O)Nc2nc(C)cc(C)n2)cc1	14
CN(C)CC(=O)N1C[C@@H]2COC[C@]2(COCC2CCOCC2)C1	9
COc1ccccc1-n1cc(C(=O)NCC2(C)CC(C)=NO2)cn1 (stereo not given)	2
CCc1nnc(NC(=S)NC(=O)c2ccc(-c3ccccc3)cc2)s1	245
O=C(O)c1ccc(CC2CCCN(C(=O)C3CCS(=O)(=O)CC3)C2)cc1 (stereo not given)	11
Cc1nn(CC(C)C(=O)N2CCCC2c2ncc3c(n2)CCNC3)c(C)c1C (stereo not given)	5
CC(=O)N1CCN(c2cc(C)nc(C3CCCN3C(=O)Cn3cccn3)c2)CC1 (stereo not given)	-2
CC(=O)c1cccc(NC(=O)N2CCC(C(=O)c3cccc(C(F)(F)F)c3)CC2)c1	-41
Cc1cccc(-c2nc(Cn3cnc4onc(-c5ccc(Cl)cc5)c4c3=O)c(C)o2)c1	-41
CCOc1ccccc1-c1noc(-c2nnn(Cc3nc(-c4ccc(C)cc4)oc3C)c2C)n1	-17

(listing goes on)
SMILES	Tgondii IFNg
COc1ccc(S(=O)(=O)N2CCCCCC2c2ccn(C)n2)cc1 (stereo not given)	99
CN(Cc1noc(C2CCCC2)n1)Cc1cn[nH]c1-c1ccc(F)cc1	17
Cc1cc(C#N)cc(C)c1Oc1nc(Nc2ccc(C#N)cc2)nc(N)c1Br	-86*
CCn1c(C2CCN(C(=O)c3ccccc3-n3cncn3)CC2)nn(C)c1=O	-21
Nc1nc(NCC2CCC(CNS(=O)(=O)c3cccc4ccccc34)CC2)nc2ccccc12 (stereo not given)	-77*!
Cc1ccc(C)c(-c2coc(-c3ccc(NC(=O)NCc4ccc(F)cc4)cc3)n2)c1	9
CN(C)CCN1C2(CCN(Cc3ccncc3)C2)c2ccccc2S1(=O)=O (stereo not given)	-29
Cc1nc(-c2ccc(Cl)cc2)sc1CCNC(=O)c1ccc(F)cc1	-47
CN(Cc1ccccc1)Cc1cc(C(=O)NC2CC(=O)Nc3ccccc32)no1 (stereo not given)	-30
COc1cccc2c1OCCCN(C(=O)c1cn[nH]n1)C2	-4
CNC(=O)CN1CCCC12CCN(c1ccc(C#N)cc1)CC2	27
Cc1cnc(N2CC[C@@H](N3CCOCC3)[C@H]2Cc2cnn(C)c2)nc1	-2
CC1CCN(C(=O)c2csc(-c3ccc(N4CCCC4)nc3)n2)CC1	-47
CC(C)NC(=O)Cn1ncc2c(N3CCN(c4ccccn4)CC3)ncnc21	119
CCn1cc(CN2CCN(C(=O)c3cc4c(F)cccc4[nH]3)CC2)c(C)n1	-108*
CCS(=O)(=O)Nc1ccc2c(c1)C(=O)N(C)[C@H]1CC[C@H](CC(=O)NCc3ccccc3F)O[C@@H]1CO2	11
COc1cccc(CSc2nc3c(cc2C#N)CCCCC3)c1	?
COc1ncccc1CN1CCC2(CC1)OCC(=O)NC2C (stereo not given)	-4
O=S(=O)(Nc1ccccc1N1CCOCC1)c1cccc2nonc12	-45
CC(=O)Nc1cc(C2CCCN(C(C)=O)C2)nc2c1c(C)nn2C(C)C (stereo not given)	23
COc1ccc(-c2nc(C)c(-c3ccc(SCc4cc(C)ccc4C)nn3)s2)cc1	2
O=C(CC1CC1)N1CC2(C1)[C@H](c1ccccc1)[C@H](CO)N2C(=O)c1ccccn1	-4
Cc1ccc(N2CCN(Cc3ccccc3)C3(CCNCC3)C2=O)cn1	-43
N#CC(C#N)Cc1ccc(O)cc1	16
CN(C)CCN1C(=O)c2cccc3cc(NC(N)=O)cc(c23)C1=O	-32
CC1(C)Cc2nc3sc4c(=O)n(CC(N)=O)cnc4c3cc2CO1	9
NC(=O)c1cnc(N[C@@H]2CCCC[C@@H]2N)nc1Nc1cccc(-n2nccn2)c1	-26&-69
CC(=O)N1CCC2(C=C(C(=O)N3CCCC3)c3ccccc32)CC1	25
O=C(Cn1cccnc1=O)N1CC[C@@H](c2ccc3ccccc3c2)[C@H](O)C1	-20
c1cnc(N2CCC3(CCN(CC4CCOCC4)CC3)C2)nc1	4
CCn1c(C2CCN(C(=O)Cc3nonc3C)CC2)nn(C)c1=O	3
Cc1cc(-c2nn(-c3ccccc3F)cc2CN2CCCC(O)C2)c(C)s1 (stereo not given)	18
CNC(=O)[C@@H]1C[C@H](N)CN1C(=O)Cn1c(C2CC2)nc2ccccc21	-6
CC(=O)C(C)(C)OC(=O)N1CCOCC1	155
COc1ccc(OCC(=O)NCCc2csc(-c3cccc(F)c3)n2)cc1	6
CCC(=O)Nc1ccc(OCC(=O)NCc2cnc(C)cn2)cc1	-8
Cc1nn(Cc2nc(-c3ccc(NC(=O)c4ccsc4)cc3)oc2C)c(C)c1C	105
CN(C)c1ncc(C(=O)N2CCc3nc(-c4ccc(F)cc4)sc3C2)cn1	2
CCN1C[C@]23CN(C(=O)c4cnccn4)C[C@@H](C[C@H]2S1(=O)=O)O3	2
CN1CCN(c2nc(-c3ccccn3)nc3c2CCNC3)CC1CCO (stereo not given)	3
COc1ccc(C#Cc2ccc([C@H]3[C@@H](CO)N4CCCCN(C)C[C@H]34)cc2)cc1	-19
COc1cc(NC(=O)c2c(O)c3cccnc3[nH]c2=O)cc(OC)c1	-14
CN(C)S(=O)(=O)N1C[C@H](Oc2cccnc2)[C@@H]2OCCC[C@@H]21	-2
CCOc1ccc(-c2nc(Cn3c(=O)c4c(C(=O)OC)cc(C)nc4n(C)c3=O)c(C)o2)cc1	13
COc1ccccc1-c1nnc(CC(=O)O)o1	-24

At a glance, part of the list above.
SMILES	Tgondii IFNg
CN(C)C(=O)CC1CC2(CCN(C(=O)C3CCOCC3)CC2)Oc2ccccc21 (stereo not given)	1
CC(=O)N1CCC(N2CCC3(CCCN(C(=O)OCC(C)(C)C)C3)C2)CC1 (stereo not given)	-36

From PubChem

These rows are one share of the data (hit frequency here may not be typical).
